VDR inhibitor – blocks the human vitamin D receptor; AID 504847; VDR-SRC2-3 peptide fluorescence polarization, 2 h; 400,000 tested, 0.93% active; Potency, µM, for inactives: max response, negative = inhibition, hits mostly inhibitors; P11473; active means well fitted inhibition curve with a large enough effect; inconclusive means small, poorly fitted or top-dose-only effect, or another doubt; inactive means no such curve, though single readings can be large or run the other way; further: series mostly up to about 120 µM
Target sequence (P11473 whole entry, looked up): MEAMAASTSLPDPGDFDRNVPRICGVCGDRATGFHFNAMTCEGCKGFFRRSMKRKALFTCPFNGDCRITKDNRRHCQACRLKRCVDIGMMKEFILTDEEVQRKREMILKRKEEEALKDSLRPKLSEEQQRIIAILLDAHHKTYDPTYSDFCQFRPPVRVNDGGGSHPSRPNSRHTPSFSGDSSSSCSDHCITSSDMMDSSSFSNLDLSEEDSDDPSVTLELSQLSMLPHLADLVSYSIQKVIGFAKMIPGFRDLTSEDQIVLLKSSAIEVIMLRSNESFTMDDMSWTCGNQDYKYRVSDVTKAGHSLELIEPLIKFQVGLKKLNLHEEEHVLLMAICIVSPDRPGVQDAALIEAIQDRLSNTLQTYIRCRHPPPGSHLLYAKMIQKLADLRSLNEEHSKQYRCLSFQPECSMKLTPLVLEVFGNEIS
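VDR–SRC2-3 interaction, FP format. Cmpds 23 nl via pintool, brief spin, 2 h ambient incubation.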
An asterisk follows results filed as active; ? = inconclusive; & = joins results of further samples. On the % scale 0 is the no-effect control and ±100 the full control effect; potency means the concentration at half of the fitted maximal effect.

structure	VDR inhibitor
CC1CCc2[nH]c3ccc(C(=O)N(C)CC(=O)Nc4ccccc4Br)cc3c2C1 (centres undefined)	-1.0%
CSc1ncc(C(=O)O)n1-c1ccc(F)cc1	9.5%
Cc1cccc(N2C(=O)CC(N(O)c3ccccc3)C2=O)c1 (centres undefined)	-1.5%
Cc1cc(-c2c(C)[nH]n(-c3ccccc3)c2=O)n[nH]1	0.7%
Cc1ccc(N2CC(C(=O)NCc3n[nH]c(=O)c4ccccc34)CC2=O)cc1 (centres undefined)	-14.9%
COC(=O)c1nc2ccccn2c1F	-10.2%
Nn1c(Cc2ccccc2F)nnc1SCC(=O)Nc1cccc(S(=O)(=O)NC2=NCCCCC2)c1	13.3%
C[C@@H]1C=C(C(=O)N2CCN(C)CC2)O[C@H](OCc2ccc(CO)cc2)C1	-12.4%
O=c1c(-c2ccc(Cl)cc2)nc2cnc(Nc3ccccc3)nc2n1C1CC1	1.5%
COc1ccccc1C(O)(c1ccccc1)c1ccccc1OC	-6.3%
Nc1ccc(C(=O)N(CCO)CCO)cc1	-3.7%
Cc1cc(/C=N/NC(=O)CC2(C)OCCO2)c(C)n1-c1cc(Cl)cc(Cl)c1	0.9%
Fc1ccccc1CSc1nncn1NCc1cccs1	-1.8%
CC(=O)c1ccc(NC(=O)CSc2ccc(-c3sc(C)nc3C)nn2)cc1	11.2%
COC(=O)C1[C@H]2C(=O)N(Cc3cccs3)C[C@]23C=C[C@H]1O3 (some centres undefined)	-14.4%
COc1ccc(C2(CNC(=O)c3cccc([N+](=O)[O-])c3)CCOCC2)cc1	12.5%
Cn1c(SCC(=O)Nc2ccc(Br)cc2F)nnc1-c1ccco1	-5.9%
CC(=O)N/N=C(/C)c1ccc(NC(=O)c2csc(C)c2C)cc1	-0.8%
c1ccc2c(c1)OCc1cn[nH]c1-2	-2.3%
O=C(Nc1ccc(F)c(Cl)c1)C1CC(=O)n2c(nc3ccccc32)N1 (centres undefined)	14.1%
COc1cccc(NC(=O)C2C3C=CC(O3)C2C(=O)NCc2cccnc2)c1 (centres undefined)	-7.3%
COc1ccc(C(=O)CC(=O)c2ccccc2)cc1	14.7%
Cc1ccccc1/C=C/C1=NCCN1	2.6%&-21.6%
Cc1nn(C)c2ncc(C(=O)c3ccccc3O)cc12	-4.2%
CCc1ccc(NC(=O)C2CCCN(S(=O)(=O)c3cccc4nsnc34)C2)cc1 (centres undefined)	-19.6%
Oc1ccc(-c2sc(Nc3ccccc3)n[n+]2-c2ccc(F)cc2)cc1	-19.3%
CCOC(=O)C1CCN(Cc2cn[nH]c2-c2ccc(C)cc2)CC1	-7.5%
CC(=O)c1cccc(NC(=O)c2sc(Cl)nc2C)c1	-23.8%
COC(=O)c1ccc(CON2C(=O)c3ccccc3C2=O)cc1	4.7%
CCn1c2ccccc2c2cc(/C=N/O)ccc21	-3.6%
CC(=O)c1cccc(NC(=S)NCCc2ccc(F)cc2)c1	1.7%
COc1ccc(-n2cnc3cc(C(=O)NC4CCCCCC4)ccc32)cc1	22.5%
COc1cc([N+](=O)[O-])ccc1NC(=S)Nc1cc(C(=O)OC(C)C)cc(C(=O)OC(C)C)c1	-10.9%
CCc1cc(=O)n2c([nH]c3ccccc32)c1C#N	3.9%
CCc1ccccc1OCC(=O)OCC(=O)Nc1cc(C)on1	5.7%
Cc1n[nH]c(=O)c2c(NC(=O)COC(=O)Cc3c(F)cccc3Cl)oc(C)c12	9.3%
CSc1nc2ccccc2cc1/C=C(\C#N)c1ccc(Cl)c(Cl)c1	10.7%
COc1ccc(-c2nnc(NC(=O)CSc3ccccc3)s2)cc1OC	10.9%
COc1ccc(C(=O)c2c(N)sc3c2CCN(C)C3)cc1	0.7%
O=C(CS(=O)(=O)c1ccc(Cl)cc1)NCc1ccccc1	9.5%
CCN(C(=O)COC(=O)C(Cc1ccccc1)N1C(=O)c2ccccc2C1=O)C1CCS(=O)(=O)C1 (centres undefined)	-20.3%
C/C(=N/NS(=O)(=O)c1ccccc1)c1ccc(NC(=O)C2CC2)cc1	20.6%
c1ccc(Cn2nnc3cnccc32)cc1	16.3%
COc1nccnc1NS(=O)(=O)c1ccc(N)cc1	15.1%&-13.6%
Cc1ccc(CNC(=O)c2ccc(C)s2)cc1	0.5%
COc1ccc(NS(=O)(=O)c2ccc(N/N=C(\C)c3ccncc3)c([N+](=O)[O-])c2)cc1	-0.1%
C/C(=N\NC(=O)CCCNc1cccc(C)c1)c1ccncc1	0.9%
COc1ccc(OC)c(C(=O)NC2CC(C)(C)Cc3c2cnn3-c2ccccc2)c1 (centres undefined)	13.7%
Cc1ccc(NC(=O)c2ccc(NCCN)c([N+](=O)[O-])c2)cc1Cl	18.3%
COc1ccc(N(C(=O)c2cccnc2)S(=O)(=O)c2cccc([N+](=O)[O-])c2)cc1	-9.4%
COc1ccc(N2CCN(S(=O)(=O)CCNC(=O)c3c(F)cccc3Cl)CC2)cc1	7.9%
O=C1c2ccccc2C(=O)c2c(NCCCN(CCO)CCO)cccc21	8.1%
Cc1cccc(CN2CCN(C3CCCC3)C(CCO)C2)n1 (centres undefined)	-20.4%
CCc1ccc(CNC(=O)c2sc3nc[nH]c(=O)c3c2C)cc1	3.1%
O=C1CC(C2CCCO2)C(=O)N1c1cccc(Cl)c1 (centres undefined)	21.5%
N#C/C(=C\c1ccc(-c2ccc(C(=O)O)cc2)o1)C(=O)NCC1CCCO1 (centres undefined)	-16.9%

More compounds follow:
structure	VDR inhibitor
CC(C)CC(=O)/C(=C/c1ccc(N(C)C)cc1)n1cncn1	-5.7%
CCCCN1C(=O)CN(C2CCCCCC2)C(=O)C1c1ccc(OCCC)c(OC)c1 (centres undefined)	5.4%
Cn1c(N2CCC(C(N)=O)CC2)nc2c1c(=O)n(Cc1ccc(Br)cc1)c(=O)n2C	-16.8%
Cc1cc2ccccn2c1C(C[N+](=O)[O-])c1ccc(N(C)C)cc1 (centres undefined)	-9.1%
CC(C(=O)Nc1ccccc1)N1CCN(C(=O)c2ccco2)CC1 (centres undefined)	2.8%
Cc1cc(N)n(-c2ccc3ccccc3c2)n1	13.5%
Cc1sc2ncnc(N3CCC(C(=O)Nc4nnc(SCc5ccccc5F)s4)CC3)c2c1C	-15.5%
COc1ccc(S(=O)(=O)N2CCCCC2)cc1NC(=O)CCNC(=O)c1ccccc1Cl	-2.0%
Cc1nc([N+](=O)[O-])c(SCC(O)CCl)n1Cc1ccc(Cl)cc1 (centres undefined)	13.9%
COc1ccccc1NC(=S)N(CCCN(C)C)Cc1cc2cc3c(cc2[nH]c1=O)OCO3	-9.9%
Cc1cc(NCCCn2ccnc2)n2nc(-c3ccc(Cl)cc3)cc2n1	-19.5%
Cc1ccc2c(c1)C(c1ccccc1)N(C(=O)COc1ccc(Cl)cc1Cl)CC(=O)N2 (centres undefined)	-14.3%
O=C(Nc1ccc(N2CCCC2)cc1)c1cccc(-c2cc3ccccc3oc2=O)c1	?
CCCc1cc(=O)oc2c(C)c(O)c(CN3CCCCC3)cc12	-5.4%
COc1cc(CNCCCN2CCOCC2)ccc1OCC(=O)NC(C)(C)C	15.3%
CCCN(CCC)CC(O)CN(c1cc([N+](=O)[O-])ccc1OC)S(=O)(=O)c1ccccc1 (centres undefined)	-2.3%
COc1cc(NC(=O)c2cc(-c3ccccc3)on2)cc(OC)c1OC	-19.4%
c1ccc2nc(C3=NCCN3)ccc2c1	0.6%
CCC(C(=O)NCCc1ccc(S(N)(=O)=O)cc1)c1ccccc1 (centres undefined)	17.8%
O=C(COC(=O)c1ccccc1)Nc1cc(S(=O)(=O)N2CCCCCC2)ccc1Cl	-27.6%
CC(=O)NC/C(C)=N\Nc1ccc([N+](=O)[O-])cc1	-12.5%
O=C(Cc1coc(-c2ccc(F)cc2)n1)NC1CCCCC1	13.2%
COc1ccc(N2CCN(C(=O)Cc3ccc(OC)c(OC)c3)CC2)cc1	?
COc1ccc(S(=O)(=O)N2CCCCC2)cc1C(=O)Nc1cccc(C(F)(F)F)c1	9.9%
COc1cccc(NC(=O)CSc2nnc(-c3cccs3)n2C)c1	-10.0%
O=C(COc1cc2oc(=O)c3c(c2cc1Cl)CCC3)Nc1ccc(CN2CCOCC2)cc1	-10.1%
CC(C)CCn1c(=O)c2sccc2n2c(CCCC(=O)Nc3ccc(C(C)C)cc3)nnc12	10.3%
COc1cc(NC(=O)C/C(C)=N/NC(=O)C(=O)NC2CCCCC2)c(OC)cc1Cl	-0.6%
CCOC(=O)c1cc2c(=O)n3ccccc3nc2n(CC2CCCO2)c1=NC(=O)c1ccccc1C (centres undefined)	-0.8%
Oc1c(C(c2cccs2)N2CCOCC2)sc2ncnn12 (centres undefined)	-7.9%
Cc1ccc(CC(=O)Nc2ccc(S(=O)(=O)N3CCOCC3)cc2)cc1	-10.2%
O=c1[nH]cc(N(CCO)CCO)c(=O)[nH]1	-4.1%
Cc1ccc2nc(N(CCCN(C)C)C(=O)CN3C(=O)c4ccccc4C3=O)sc2c1	5.5%
CCN1CCN(Cc2c(O)ccc3c(=O)c(-c4ccc(OC)c(OC)c4)c(C(F)(F)F)oc23)CC1	-4.6%
CCOc1ccc(NC(=O)Cn2cc(S(=O)(=O)NC)c(S(=O)(=O)NC)c2)cc1	3.4%
CS(=O)(=O)c1cccc(-c2csc(N3CCC(C(N)=O)CC3)n2)c1	0.1%
CC(Cl)C(=O)Nc1ncc(C(F)(F)F)cc1Cl (centres undefined)	15.1%
CCOC(=O)CC(NC(=O)c1cccs1)c1ccc(C)cc1 (centres undefined)	-13.1%
O=C(c1ccc(Cl)s1)N1CCN(S(=O)(=O)c2ccc(Cl)cc2)CC1	27.5%
COc1ccc(NC(=O)C(CC(C)C)NC(=O)C2CCC(C)CC2)cc1 (centres undefined)	-2.2%
CCOc1ccc(N(C(C)C(=O)NCCSc2ccc(C)cc2)S(C)(=O)=O)cc1 (centres undefined)	-9.5%
CCOC(=O)N1CCc2c(sc3c2c(=O)n(Cc2ccccc2)c(=O)n3Cc2c(F)cccc2Cl)C1	-7.3%
O=[N+]([O-])/C=C/c1cc2ccccc2[nH]1	?
COc1ccc(/C=C/c2nc3ccccc3n2C)cc1	5.4%
COc1ccc(-c2nc(SCC(=O)NC3CCCC3)c(-c3ccc(OC)cc3)[nH]2)cc1	0.3%&0.2%
COCCn1c(SCC(=O)c2c(N)n(C3CC3)c(=O)[nH]c2=O)nc2ccccc21	12.0%
COc1ccccc1S(=O)(=O)N1CCC(C(=O)O)(c2ccccc2)CC1	-1.3%
COC(=O)CCN(C(C)=O)c1ccc(N)cc1	?
COCCNC(=O)c1ccc2c(c1)C(=O)c1ccccc1-2	-12.2%
COCCOC(=O)C1=C(C)NC(=O)NC1c1ccc(-c2ccc(F)cc2)o1 (centres undefined)	-8.6%
COc1cccc(N2CCN(c3ncnc4onc(-c5ccc(F)cc5)c34)CC2)c1	2.3%
COc1ccccc1NC(=O)C1=C(C)Nc2nc(SCc3ccccc3)nn2C1c1cccnc1 (centres undefined)	-10.1%
COc1ccc(S(=O)(=O)NC2CC(C)(C)NC(C)(C)C2)c2ccccc12	-4.0%
CO/N=C/C(=N\Nc1cc(OC)cc(OC)c1)C(=O)c1ccccc1	4.1%
CCC(Sc1nc(N)cc(=O)[nH]1)C(=O)Nc1cc(C)on1 (centres undefined)	-11.7%
COC(=O)c1ccc(Cn2nc([N+](=O)[O-])c(Br)c2C)cc1	7.6%

Another view of some results above:
COc1ccc(S(=O)(=O)NC2CC(C)(C)NC(C)(C)C2)c2ccccc12
  VDR inhibitor = -4.0%
CO/N=C/C(=N\Nc1cc(OC)cc(OC)c1)C(=O)c1ccccc1
  VDR inhibitor = 4.1%
CCC(Sc1nc(N)cc(=O)[nH]1)C(=O)Nc1cc(C)on1 (centres undefined)
  VDR inhibitor = -11.7%
COC(=O)c1ccc(Cn2nc([N+](=O)[O-])c(Br)c2C)cc1
  VDR inhibitor = 7.6%

The results go on:
structure	VDR inhibitor
CCCc1nc(SCC(=O)c2ccc3c(c2)NC(=O)CO3)[nH]c(=O)c1CC	?
Cc1ccc(CNc2nc3ccccc3n2C)o1	6.4%
Cc1cccc(NC(=O)CSc2nnc(-c3ccccc3)n2N)c1	0.8%
O=C(c1ccco1)N1CCN(c2ccc([N+](=O)[O-])c(N3CCOCC3)c2)CC1	-3.1%
Cc1ccc(NC(=O)Cn2nc(C)n3cccc3c2=O)c(C)c1	16.2%
O=C(O)c1ccccc1NC1CCCCC1NS(=O)(=O)c1ccccc1 (centres undefined)	-4.3%
CN(C)c1ccc(/C=N/NC(=O)c2ccccc2)cc1	-6.7%
CCOC(=O)c1ccc(NC(=O)Nc2ccc3snnc3c2)cc1	-7.4%
COCCNC(=O)Cn1c(=O)n(-c2ccc(C)c(C)c2)c(=O)c2c3c(sc21)CCCCC3	-15.6%
Cc1ccc(NC(=O)c2ccc(Nc3c([N+](=O)[O-])cc([N+](=O)[O-])cc3[N+](=O)[O-])cc2)cc1	-28.9%
CCN(CC)S(=O)(=O)c1ccc(F)c(C(=O)OC2CC(C)OC2=O)c1 (centres undefined)	7.2%
CC(/C=N/NC(=O)c1nnn(-c2nonc2N)c1CN1CCCCC1)=C\c1ccccc1	28.9%

Assay outcomes: PubChem BioAssay, National Center for Advancing Translational Sciences (NCATS)

The list is partial; the hit share may differ from the screen's.
